# PINK1 expr mod: PINK1 expression modulation. 410,000 compounds, 0.2% hits. Potency, µM (top dose mostly 76.6 µM), inactives show top-dose activation (PINK1 increase), usual class: activators. PINK1 immunofluorescence, high-content cytometry, 24 h; active = well fitted activation curve with a large enough effect; inconclusive = small, poorly fitted or top-dose-only effect; inactive = flat fitted curve, though single readings scatter; cell line not stated here;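 also: potency is read from the fitted curve at half-maximal effect; % of control where 0% means no effect; nearly all actives have a fitted effect of over 65% in size; a mitochondrial uncoupler was the plate control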
#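 Cells are seeded, rested 12 hours, then given compound at five concentrations or DMSO for 24 hours. After fixation, blocking and antibody staining, PINK1 amount and mitochondrial localization are scored; CCCP serves as control.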
# Six1-Eya2 inh: Six1/Eya2 interaction inhibition; 360,000 compounds, 0.56% hits; activity change, % (no concentration beside the values); AlphaScreen GST-Six1/His-Eya2 binding, biochemical; stronger effect = lower value; control for the full effect not named in the record; AID 651725; Q15475+O00167; in the data active = activity change below about -65%; inconclusive = about -30% to -65%; inactive = above about -30%; also: % is scaled to controls: 0 for no effect and ±100 for the full control effect
# Target sequence (O00167 whole entry, looked up): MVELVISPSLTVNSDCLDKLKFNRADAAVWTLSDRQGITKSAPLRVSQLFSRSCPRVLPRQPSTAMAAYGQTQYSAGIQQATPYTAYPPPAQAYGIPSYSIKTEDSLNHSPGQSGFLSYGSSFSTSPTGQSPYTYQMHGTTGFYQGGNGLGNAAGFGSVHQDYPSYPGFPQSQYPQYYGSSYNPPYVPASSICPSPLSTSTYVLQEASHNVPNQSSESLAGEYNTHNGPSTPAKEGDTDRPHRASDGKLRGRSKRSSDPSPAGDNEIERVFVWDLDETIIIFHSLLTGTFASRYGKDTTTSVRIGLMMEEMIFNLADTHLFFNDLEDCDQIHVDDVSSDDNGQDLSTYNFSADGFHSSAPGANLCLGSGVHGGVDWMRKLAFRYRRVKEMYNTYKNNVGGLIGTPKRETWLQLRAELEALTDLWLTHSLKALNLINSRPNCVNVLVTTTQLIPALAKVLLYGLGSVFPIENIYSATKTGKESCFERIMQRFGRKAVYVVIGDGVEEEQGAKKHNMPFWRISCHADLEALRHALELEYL
# Target sequence (Q15475 whole entry, looked up): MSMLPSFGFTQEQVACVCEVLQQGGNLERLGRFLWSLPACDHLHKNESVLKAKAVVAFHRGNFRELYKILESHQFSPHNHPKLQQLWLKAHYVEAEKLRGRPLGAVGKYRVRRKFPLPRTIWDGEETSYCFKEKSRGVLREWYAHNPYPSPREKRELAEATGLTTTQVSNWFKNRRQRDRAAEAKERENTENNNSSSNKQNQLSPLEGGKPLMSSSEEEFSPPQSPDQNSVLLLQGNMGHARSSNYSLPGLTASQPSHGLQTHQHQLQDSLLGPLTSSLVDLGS
#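 AlphaScreen luminescence read after one hour at 37 °C in darkness. Pin-transferred compounds met GST-Six1 and His-Eya2 protein (5X stock 250 nM/500 nM) plus glutathione donor and Ni-chelate acceptor beads (5X, 50 ug/mL).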
# TRPML1 ag: activates the human TRPML1 channel | Q9GZU1 | TRPML1-expressing cells, Ca2+ dye fluorescence, FDSS; host cell line not named in the record; reference of the full effect not given here | activation, % (concentration not given with the values) | 410,000 compounds, 0.12% hits | AID 624414; in the data active = activation above about 50%; inconclusive = about 30% to 50%; inactive = below about 30%; also: 0% is about no effect; the text of the record puts the active cut at 80%
#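 Agonist activity was taken from a 110 s kinetic Ca2+ dye read on the FDSS after pinning compounds onto TRPML1-DL cells. The cells were seeded at 1,500/well with Tet inducer, incubated about 16 h, then dye-loaded at room temperature.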
# D2 agonist: activates the human D2 dopamine receptor; AID 624465; 360,000 compounds, 0.084% hits; DiscoveRx PathHunter D2 beta-arrestin, luminescence, 90 min; 100% = 57 uM dopamine signal; activation, % (concentration not given with the values); in the data active = activation above about 40%; inconclusive = about 15% to 40%; inactive = below about 15%; also: the text of the record calls up to 30% inactive
#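 DiscoveRx PathHunter D2 beta-arrestin cells (2,100/well) attached overnight, then compound-stimulated 90 min at 37 C in HBSS/10 mM HEPES/0.1% Tween-20 buffer; beta-galactosidase complementation read by luminescence after 1 h at ambient temperature. Dopamine 57 uM final (EC100) as control.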
# D2 potentiator: potentiates the human D2 dopamine receptor allosterically | DiscoveRx D2 beta-arrestin cells, luminescence, 90 min; 100% = 57 uM dopamine signal | 360,000 compounds, 0.23% hits | potentiation, % (no concentration beside the values) | AID 624464 | P14416; active = potentiation of 50% or more; inconclusive = 30% to 50%; inactive = 30% or less;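 also: compound concentration not given in the record; tested on top of an EC20 dose of dopamine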
#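 PathHunter beta-arrestin assay in DiscoveRx D2 cells. Compounds were added with an EC20 of dopamine (50 nM final) for 90 min at 37 deg C. Luminescence was read 1 h after detection reagent, with 57 uM dopamine as the EC100 control.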
# TRPML1 inh: inhibitors of human TRPML1 channel; TRPML1-inducible cells, Ca2+ dye fluorescence, FDSS; stronger effect = lower value; inhibition of EC80 agonist-evoked calcium signal; AID 624415; Q9GZU1; 390,000 compounds, 0.02% hits; activity change, negative = inhibition, % (concentration not given with the values); in the data active means activity change below about -50%; inconclusive means about -30% to -50%; inactive means above about -30%;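 also: stimulus is agonist 54-4 at its EC80 concentration; % is scaled to controls: 0 for no effect and ±100 for the full control effect; the text of the record puts the active cut at -80%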
#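 Calcium fluorescence in TRPML1-DL cells induced overnight with Tet: a 110 s read after compound pin addition, then a 110 s antagonist read after challenge with 54-4 at 4 uM final (EC80).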
# Starred values were filed as active, the others as inactive; ? = inconclusive; nt = no result given; [ ] = another dose, or the depositor's remark.
SMILES,PINK1 expr mod,Six1-Eya2 inh,TRPML1 ag,D2 agonist,D2 potentiator,TRPML1 inh
O=C(NCc1cccs1)C(=O)NCC1OCCCN1S(=O)(=O)c1cccs1 (stereo unspecified),0.2%,5,1.8,-1.4,3,-12
CC(NC(=O)C1CC1)C(c1cccs1)N1CCOCC1 (stereo unspecified),1.7%,8,0.3,-3.6,-6,?
Cn1c(=O)n(CCN2CCOCC2)c(=O)c2c1nc1n2CCN1c1ccc(Oc2ccccc2)cc1,-0.9%,-1,-0.4,-0.5,-2,9
Cc1ccc(C(=O)N/C(=C\c2ccco2)C(=O)NCCCN2CCOCC2)cc1C,4.5%,7,-0.2,-4.1,-10,32
Cc1cccc(C)c1NC(=O)c1ccc(N2CCCC2=O)cc1,0.2%,-3,2.6,-2.5,-1,-5
COC(=O)C(=Cc1ccncc1)c1cccc2ccccc12,9.5%,-1,0.1,-1.2,-13,-1
Nc1nc(SCC(=O)N2CCN(S(=O)(=O)c3ccc(Cl)cc3)CC2)n[nH]1,3.0%,0,0.9,-0.8,-6,-7
O=C(Nc1ccc(Cl)cc1F)C1CCN(S(=O)(=O)c2cccc3nonc23)CC1,13%,2,-0.2,-15,2,2
CCc1ccc(C(=O)/C=C2\Sc3ccccc3NC2=O)cc1,-5.1%,15,3.0,-17,-44,4
Cc1cccc(NC(=O)c2cccc(S(=O)(=O)N3CCCC3)c2)n1,2.6%,-11,-1.0,-1.7,13,9
O=C(NCCc1ccccc1)c1ccc(NC(=O)C2CCCC2)cc1,-0.5%,-2,-0.6,-0.8,nt,-1
C/C(CC1(O)C(=O)Nc2ccccc21)=N\O (stereo unspecified),2.1%,11,1.3,0.0,2,-3
CCOC(=O)Cn1c(=O)n(-c2ccccc2OC)c2nc(-c3ccc(C(C)C)cc3)nc(C(N)=O)c21,5.2%,nt,1.2,nt,nt,-7
Cc1cc(C)c(NC(=O)CSCc2nc3sc(C)c(C)c3c(=O)[nH]2)c(Cl)c1,8.1%,0,-0.4,-5.1,-3,-14
O=C(Nc1ccc(Cl)cc1F)c1cc(S(=O)(=O)NCc2ccc3c(c2)OCO3)ccc1F,4.6%,nt,2.0,nt,nt,0
Cc1cc(C)n(-c2nc3ccccc3nc2Nc2cccc(C)c2C)n1,0.9%,nt,1.3,nt,nt,6
NC1=NC(=O)/C(=C\c2cccnc2)S1,-1.5%,2,0.6,-1.0,-12,-9
COc1cccc(NC(=O)CN(C)C(=O)Cc2n[nH]c(=O)c3ccccc23)c1,-0.8%,4,-0.2,-8.5,-4,-1
CCOc1ccc(NC(=S)NC(=O)c2cccnc2)c([N+](=O)[O-])c1,4.8%,-23,0.6,3.8,-12,-10
COc1c(C(=O)Nc2c(C)n(C)n(-c3ccccc3)c2=O)ccc2ccccc12,0.3%,-7,0.2,-0.8,0,4
Cc1ccc(OCC(=O)N[C@@H](C)c2nnc3ccccn23)cc1C,1.4%,5,0.8,-3.9,-1,2
COc1ccc(C(=O)NCCc2cn3ccccc3n2)cc1,0.7%,3,nt,-3.6,-15,nt
COc1ccc(S(=O)(=O)N(C)c2ccc(C(=O)Nc3c(C)n(C)n(-c4ccccc4)c3=O)cc2)cc1,14%,-1,0.3,1.1,-2,-10
CC(=O)OC(/C(O)=C(\C#N)c1nc2ccccc2[nH]1)c1ccccc1 (stereo unspecified),1.9%[38.3 µM],-1,-0.2,4.3,-4,-12
O=C(Cn1cnc2ccccc2c1=O)NCCC(=O)Nc1ccc2c(c1)OCO2,-0.5%,3,0.0,-1.7,-5,9
CN(Cc1ccccc1)c1ncnc2sccc12,-0.8%,7,0.7,-1.0,-7,38
CNn1cnc2ccsc2c1=O,0.5%,-6,0.1,4.9,18,5
COc1cccc(-c2oc3c(c2-c2ccc(OC)nc2)C(O)CCC3)c1 (stereo unspecified),1.0%,-12,-0.9,nt,nt,nt
COc1cc(C(=S)N2CCOCC2)cc(OC)c1OC(=O)c1ccccc1[N+](=O)[O-],0.8%,?,-0.1,-0.1,-3,-12
O=C(COC(=O)CSc1cc(Cl)ccc1Cl)Nc1ncc(C(F)(F)F)cc1Cl,2.5%,1,3.8,-0.8,-15,-8
C/C(=N/NC(=O)C1COc2ccccc2O1)c1ccco1 (stereo unspecified),-2.3%,10,-0.4,-1.7,-20,-21
CCOC(=O)c1nn(-c2cccc(Cl)c2)c(C)c1C(C)=O,3.1%,1,-1.6,0.4,-2,-4
CCc1ccc(NC(=O)C2CCC(CNS(=O)(=O)c3ccc4c(c3)C(C)(C)C(=O)N4C)CC2)cc1 (stereo unspecified),0.7%,nt,0.3,nt,nt,6
CC1(C)Cc2cccc(OCC(=O)OCC(=O)Nc3cccc(S(N)(=O)=O)c3)c2O1,-0.3%,5,-0.4,-2.8,-15,0
COC(=O)c1nnn(CC(=O)Nc2cccc(Cl)c2)c1C(=O)OC,-0.3%,9,0.1,-0.7,-4,8
Cn1nc(C(C)(C)C)cc1C(=O)N1CCCCC1c1cc(C(=O)N2CCOCC2)no1 (stereo unspecified),1.2%,1,-0.4,-5.5,-9,nt
O=C(Nc1cccc(NC(=O)c2ccc([N+](=O)[O-])o2)c1)c1ccco1,-0.1%,-11,5.4,?,3,45
Cc1c(-c2ncn[nH]2)sc(C#N)c1-c1ccccc1,-0.8%,1,-0.6,-3.1,-11,14
O=C(NCCc1ccccc1Cl)c1ccc(Cn2c(=O)c3cccn3c3cccnc32)cc1,6.7%,nt,1.2,nt,nt,13
CC(NC(=O)c1cccc(C(F)(F)F)c1)C(c1ccccc1)N1CCOCC1 (stereo unspecified),-0.2%,-5,1.5,6.8,-7,-6
O=c1ccccn1Cc1ccccc1F,-1.1%,-3,-0.4,-1.6,5,43
COc1cccc(CNc2ccc(S(=O)(=O)N3CCN(C)CC3)cn2)c1,-1.2%,-4,-0.9,-2.6,-4,12
Cc1ccc(S(=O)(=O)NCCC(=O)NNC(=O)COc2ccc(Br)cc2)cc1C,2.4%,14,0.1,-2.2,-7,-9
Cc1cn2c(=O)cc(COc3ccc(Cl)cc3)nc2s1,-0.1%,nt,0.4,nt,nt,0
CC(=O)Nc1ccc(NC(=O)CSc2ccccn2)cc1,0.5%,10,0.2,-1.1,-10,-3
Cc1noc(C)c1C(=O)OC(C)C(=O)N1CCc2ccccc21 (stereo unspecified),0.5%,5,1.0,-5.3,-6,-4
C(=Cc1c[nH]c2ccccc12)c1nccc2ccccc12,2.2%,4,15,-3.0,-15,-15
CCOC(=O)Cc1cn(C(=O)OC(C)(C)C)c2ccccc12,6.0%,26,0.9,-0.9,-9,2
CC(C)(COC(=O)c1ccccc1)N1CC2CCC(C1)O2,5.6%,19,3.1,-2.6,-9,59
O=C(/C=C/Nc1ccc(F)cc1)c1ccc(Br)cc1,-0.3%,-2,-0.6,-3.0,-6,0

# Taken from the listing, 10 compounds:
SMILES,PINK1 expr mod,Six1-Eya2 inh,TRPML1 ag,D2 agonist,D2 potentiator,TRPML1 inh
O=c1ccccn1Cc1ccccc1F,-1.1%,-3,-0.4,-1.6,5,43
COc1cccc(CNc2ccc(S(=O)(=O)N3CCN(C)CC3)cn2)c1,-1.2%,-4,-0.9,-2.6,-4,12
Cc1ccc(S(=O)(=O)NCCC(=O)NNC(=O)COc2ccc(Br)cc2)cc1C,2.4%,14,0.1,-2.2,-7,-9
Cc1cn2c(=O)cc(COc3ccc(Cl)cc3)nc2s1,-0.1%,nt,0.4,nt,nt,0
CC(=O)Nc1ccc(NC(=O)CSc2ccccn2)cc1,0.5%,10,0.2,-1.1,-10,-3
Cc1noc(C)c1C(=O)OC(C)C(=O)N1CCc2ccccc21 (stereo unspecified),0.5%,5,1.0,-5.3,-6,-4
C(=Cc1c[nH]c2ccccc12)c1nccc2ccccc12,2.2%,4,15,-3.0,-15,-15
CCOC(=O)Cc1cn(C(=O)OC(C)(C)C)c2ccccc12,6.0%,26,0.9,-0.9,-9,2
CC(C)(COC(=O)c1ccccc1)N1CC2CCC(C1)O2,5.6%,19,3.1,-2.6,-9,59
O=C(/C=C/Nc1ccc(F)cc1)c1ccc(Br)cc1,-0.3%,-2,-0.6,-3.0,-6,0

# Other results follow.
SMILES,PINK1 expr mod,Six1-Eya2 inh,TRPML1 ag,D2 agonist,D2 potentiator,TRPML1 inh
Cc1cccc(-c2cnc(C(O)c3ccc4ccccc4c3)[nH]2)c1 (stereo unspecified),14%,?,-1.0,-4.8,-12,nt
Cc1sc2ccccc2[n+]1CC(=O)c1ccccc1,1.8%,-1,nt,-0.7,-47,nt
CCc1ccc(C(=O)NNc2ccc(S(N)(=O)=O)cc2)cc1,-1.8%,-5,0.1,-5.6,-9,-11
CCOC(=O)C1CCN(C(=O)/C=C/c2ccccc2)CC1,-0.1%,11,-0.2,-4.8,-2,12
COc1cc(NC(=O)c2ccc(COc3ccccc3Br)o2)cc(OC)c1OC,-1.1%,-7,0.4,3.2,0,-5
Cc1occc1-c1nnc(SCC(=O)c2cc3ccccc3oc2=O)o1,-0.7%,0,-0.3,-3.5,-12,3
O=C(c1cccc(Br)c1)c1cn(-c2ccccc2)nc1C(=O)c1ccccc1,4.1%,9,3.0,-2.6,-19,67
COc1ccccc1NC(=O)Cc1nnc(SCC(=O)Nc2nccs2)n1C,1.2%,-9,-0.5,-1.2,-6,-2
CC(C)(C)N(NC(=O)OCc1ccccc1)C(=O)c1ccccc1,-0.9%,0,-0.7,0.8,1,-24
O=C(CSc1n[nH]c(-c2ccccc2Cl)n1)NCc1cccc(C(=O)O)c1,2.2%,5,-0.6,-1.3,-4,4
CCOc1ccc(N2C(=O)CC(Cc3ccc(Br)cc3)C2=O)cc1 (stereo unspecified),6.4%,0,nt,13,1,nt
Cc1cccc(C)c1OCC(=O)N1CC2(C)CC1CC(C)(C)C2 (stereo unspecified),-1.7%,0,0.2,-1.9,-14,-4
O=C(CCS(=O)(=O)c1ccccc1)N1CCN(c2ccccc2F)CC1,-0.5%,0,0.4,-4.1,-15,-3
Cc1ccc(C(=O)Cc2nc3ccccc3[nH]2)cc1,3.1%,6,0.1,-2.1,-8,-8
CC(=O)Nc1ccc(N=C(C2=C(O)c3ccccc3C2=O)c2ccccc2)cc1,-1.2%,1,0.4,0.7,-5,-4
CCN(CC)S(=O)(=O)c1ccc(C(=O)Nc2cc(S(=O)(=O)N3CCOCC3)ccc2N2CCN(C)CC2)cc1,-0.5%,-6,1.8,7.7,-1,-10
CCOC(=O)CN1C(=O)CSc2ccc(S(=O)(=O)N3CCOCC3)cc21,-0.4%,4,0.6,2.8,-4,-2
CCOc1ccccc1CNC(=O)CN1C(=O)C2CCCCN2c2ccc(C(=O)N(C)C)cc21 (stereo unspecified),0.4%,nt,-0.5,nt,nt,-6
Cc1cc(NC(=O)CSc2cn(C)c3ccccc23)no1,-0.5%,-2,0.4,-3.8,-3,31

# Compound activity: PubChem BioAssay, National Center for Advancing Translational Sciences (NCATS)
